Bioassay records (PubChem)
UUG fidelity: yeast start codon fidelity modulation. actives 0.13% (n = 350,000). AID 602363. activity score, % at 18.7 µM. S. cerevisiae UUG-firefly luciferase reporter, luminescence/redox ratio;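 active = replicate mean at a twofold rise or more, about +100% in these data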;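 also: firefly luciferase made from a UUG start codon reports start codon fidelity; reporter light over untreated wells divided by growth signal over untreated wells; some hits fall short of that in this replicate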
eIF4H inh: inhibitors of RNA binding by human eIF4H | actives 0.94% (n = 290,000) | Q15056 | eIF4H fluorescence polarization binding assay | inhibition, % at 35 µM;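 active = 50% or more with normal probe brightness, or confirmed in later tests; inconclusive = above 50% with abnormal brightness, or retests that disagree; inactive = below 50% or failed in later tests; about a fifth of its hits are not listed in these tables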;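 also: calls also rest on retests at 20 µM and on dose response follow-up; 0% = protein and probe with vehicle and 100% = probe without protein; strong numbers were not always called active; many hits fall short of the cut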
Env fusion inh: inhibitors of HIV Env-mediated cell fusion | HeLa-JRFL Env/CEM21 cell fusion, luciferase | actives 1.1% (n = 360,000) | AID 651610 | inhibition, % at 12.3 µM;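 active = mean replicate inhibition score of at least 50 and every replicate individually at or above 50; inconclusive = only one of the two criteria met; inactive = mean below 50 and not all replicates reaching 50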;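 also: 0% = plate neutral controls and 100% = maraviroc near 300 nM; one replicate is shown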
CSC inhib: blocks cancer stem cells. cancer stem cell-like cells viability, luminescence. inhibition, % at 7.5 µM. actives 1.1% (n = 300,000);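 active = mean at 75% or more and at least half the replicates too; inconclusive = mean and replicates disagree; tested in HMLE shEcad cells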;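 also: 0% = median of negative and 100% = median of positive control wells; the first replicate is given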
MT1-MMP act inh: blocks activation of human MT1-MMP; HT1080 RFP-PRO-GFP cells, GFP/RFP ratio fluorescence, overnight; percent of plate control window, DMSO zero; P50281; GFP/RFP ratio change, % at 20 µM; actives 0.061% (n = 360,000);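 active = GFP/RFP ratio change of at least 30% with cell ATP level not reduced by more than half and red fluorescence within 50% of control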; also: strong numbers were not always called active
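Assay system: HT1080 RFP-PRO-GFP cells. Benchmarks: DMSO vehicle wells and RFP-L50D-GFP reporter cell wells. Times: overnight cell settling, then overnight compound exposure, 37 °C, 5% CO2. Compound: 20 µM single dose, 1% DMSO. Read-out basis: GFP/RFP fluorescence ratio.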
PABP polyA inh: blocks human PABP binding to poly(A) RNA. P11940. fluorescence polarization. inhibition, % at 35 µM. actives 1% (n = 290,000);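 active = 50% or more with normal probe brightness, or confirmed in later tests; inconclusive = above 50% with abnormal brightness, or retests that disagree; inactive = below 50% or failed in later tests; about a fifth of its hits are not listed in these tables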;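 also: calls also rest on retests at 20 µM and on dose response follow-up; controls were probe without protein and protein plus probe with vehicle; some compounds called inactive have numbers as strong as hits; many hits fall short of the cut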
Target sequence (P11940 whole entry, looked up): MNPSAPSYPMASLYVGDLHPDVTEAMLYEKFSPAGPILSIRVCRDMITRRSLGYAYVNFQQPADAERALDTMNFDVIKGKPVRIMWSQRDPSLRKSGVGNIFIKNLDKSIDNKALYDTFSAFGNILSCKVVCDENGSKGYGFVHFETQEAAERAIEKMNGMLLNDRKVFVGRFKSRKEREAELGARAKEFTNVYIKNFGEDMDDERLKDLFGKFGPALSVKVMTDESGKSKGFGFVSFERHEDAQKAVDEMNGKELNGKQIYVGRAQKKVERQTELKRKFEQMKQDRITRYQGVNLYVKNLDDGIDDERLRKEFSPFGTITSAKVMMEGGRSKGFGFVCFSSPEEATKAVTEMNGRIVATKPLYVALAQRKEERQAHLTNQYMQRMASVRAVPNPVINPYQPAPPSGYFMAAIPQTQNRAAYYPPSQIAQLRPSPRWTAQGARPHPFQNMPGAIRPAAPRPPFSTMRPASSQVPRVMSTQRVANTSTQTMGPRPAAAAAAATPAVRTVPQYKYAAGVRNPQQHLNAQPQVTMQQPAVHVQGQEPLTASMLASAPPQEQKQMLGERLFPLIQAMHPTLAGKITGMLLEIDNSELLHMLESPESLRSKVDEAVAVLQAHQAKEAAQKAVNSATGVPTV
Rce1 inh: blocks yeast Ras-converting enzyme | yeast membranes, quenched prenylated peptide cleavage fluorescence | calls only | AID 2563 | actives 0.27% (n = 290,000);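 active = fall in fluorescence gain of 50% or more versus controls, with final raw signal at or below 3038400; inconclusive = same 50% fall but final raw signal above 3038400; inactive = fall in fluorescence gain under 50%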;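 also: plate controls were neutral control wells for no effect and wells lacking membranes for full effect; tested at 10 µM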
eIF4H inh retest: recorded beside eIF4H inh, whose call it bears; inhibition, %; compound at 20 µM; confirmation average;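 mean of two retest wells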
PABP polyA inh retest: further read-out of PABP polyA inh, marked with its call; inhibition, %; compound at 20 µM; confirmation repeats;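 mean of two retest wells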
MT1-MMP act inh RFP: second read-out of MT1-MMP act inh, no call of its own (marks repeat the call); RFP signal change, %; measured here: RFP expression control read;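 0 = vehicle wells; hits needed this value within 50% of zero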
Active calls of the source: *; i = inactive; ? = inconclusive; / = no result given. The list is partial (hit frequency here may not be typical).

SMILES	UUG fidelity	eIF4H inh	Env fusion inh	CSC inhib	MT1-MMP act inh	MT1-MMP act inh RFP	PABP polyA inh	Rce1 inh	others
Cc1cc(C(=O)COC(=O)CNC(=O)c2ccco2)c(C)n1Cc1ccco1	-8.5	39.4	/	-5.8	5.6	9.9	-9.4	i
CC1=Nc2ccc(C)cc2/C1=C/c1c(N)n2c(S(=O)(=O)C(C)C)nsc2nc1=O	/	-9.0	-5.6	/	1.7	-2.5	-2.8	i
O=C(Nc1ccccc1C(F)(F)F)N1CCCC1c1cccnc1 (centres undefined)	/	-5.4	12.5	-7.5	-0.8	4.3	-1.3	/
COc1ccc(C(C)(O)c2nc(-c3ccc(OC)nc3)cs2)cc1 (centres undefined)	14.3	/	-3.0	/	0.2	-4.0	/	/
Cc1cccn2c(=O)c3cc(C(=O)NCCN4CCOCC4)c(=N)n(Cc4ccc(F)cc4)c3nc12	3.6	-5.8	29.9	-11.6	-0.8	-1.6	3.8	i
CN(C)S(=O)(=O)c1ccc(S(=O)(=O)N(Cc2ccco2)Cc2ccccc2Cl)cc1	-9.5	2.1	/	6.8	1.6	4.8	-1.0	i
CCOc1ccc(CN(C)C(=O)c2cccnc2SC)cc1OC	-5.6	-2.9	-12.2	-1.8	-0.9	-0.3	-4.4	i
CSc1nc(-c2ccco2)cc(C(F)(F)F)c1C#N	-3.3	-3.7	-135.8	-15.5	-2.2	1.0	-3.8	/
Cc1ccc(NC(=O)CCOc2ccccc2)c(C)c1	-18.1	-17.3	/	-6.2	1.9	-1.2	-4.1	i
Cc1cc(=O)oc2cc(NC(=O)c3cccc(Br)c3)ccc12	-15.1	-32.1	-12.2	16.7	-2.3	-8.2	-21.7	i
COc1cccc(C(CNC(=O)C(c2ccccc2)c2ccccc2)N(C)C)c1 (centres undefined)	-13.0	2.0	-32.1	-3.7	-2.6	0.4	11.5	i
CCOc1ccc(NC(=O)c2ccccc2C(=O)c2ccccc2)cc1OCC	-7.2	-5.3	1.6	-12.6	-3.4	-5.1	-6.2	i
COC(=O)C1=C(C)N(Cc2ccccc2)C(=O)N[C@H]1c1cccs1	-20.5	-0.9	14.7	-8.7	0.6	0.1	4.7	i
Cc1ccc(-c2nc(-c3ccncc3)no2)cc1Cl	-6.4	-0.5	-23.1	2.6	1.3	-1.3	0.3	i
Cc1ccc(S(=O)(=O)N(C)Cc2cc3cc(C)ccc3[nH]c2=O)cc1	0.3	-14.8	14.7	1.6	-4.0	-4.8	-0.6	i
Cc1[nH]nc(SCC(=O)Nc2ccc(C#N)cc2)c1[N+](=O)[O-]	/	11.4	9.4	17.0	0.2	4.4	3.3	i
COc1cccc(C(O)c2nc3ccccc3n2C(C)C)c1OC (centres undefined)	-18.9	0.6	-41.6	-3.3	-1.5	1.5	-6.6	i
CC(=O)c1ccc(S(=O)(=O)Nc2cc3c(cc2C(C)=O)OCO3)cc1	-4.8	0.4	6.7	-10.2	-0.3	0.5	-6.6	i
O=C(O)CC1S/C(=N/N=C/c2ccc(-c3ccccc3[N+](=O)[O-])o2)NC1=O (centres undefined)	-19.5	46.2	-72.8	2.5	8.9	1.4	14.5	i
O=C(c1cccc(F)c1)N1CCN(c2cccc(Cl)c2)CC1	0.7	4.2	-31.6	34.0	3.2	-6.4	-5.0	i
CC(=O)c1c(O)c2ccccc2n(C)c1=O	/	-7.5	-1.7	/	-3.7	-3.3	14.4	i
CSc1ccc(CN2CCC(Oc3cccc(C(=O)N4CCCC4)c3)CC2)cc1	-4.1	-1.7	3.8	-5.3	-0.7	-6.7	-0.6	i
NC(=O)N/N=C/C=C/c1ccc(F)cc1	-15.6	-1.2	-1.3	-6.3	4.2	2.9	11.2	/
O=C(CCCCC(=O)NCCCc1ccccc1)NCCCc1ccccc1	-5.3	-0.9	-4.4	-13.9	-2.8	-6.3	-7.6	i
O=C1c2ccccc2CCC1C(O)c1ccccn1 (centres undefined)	-15.4	-5.7	-124.3	10.7	-8.8	-20.4	1.7	i
CCOc1ccc(N2C(=O)CN(CC(=O)OC)C2=S)cc1	/	4.6	-4.8	-1.0	1.2	4.0	0.9	i
COc1ccc(-c2cc(-c3ccc(Br)cc3)nc3ncnn23)cc1OC	-19.3	2.5	-30.6	-2.9	-0.5	-2.0	6.4	i
Cc1ccc(S(=O)(=O)/N=C(/NC(=S)Nc2cccc(C)c2)c2ccccc2)cc1	-9.5	9.7	/	1.0	0.3	-1.9	-2.0	i
CN1CCC(Oc2ccccc2Sc2ccc(C(F)(F)F)cc2)CC1	/	-10.4	-2.0	75.3*	-1.5	0.9	-0.7	i
O=C(Nc1c2n(c(=S)n(-c3ccccc3)c1=O)CCCCC2)c1ccccc1	/	9.8	-0.9	-2.4	-0.3	-4.9	11.8	i
CCOc1ccc(Nc2nc(Cc3nnc(SCC(=O)NCc4ccco4)n3CC)cs2)cc1	-15.2	12.0	/	35.8	1.5	5.7	17.5	i
Cn1nc(C(=O)NCc2ccccc2)c2ccccc2c1=O	-12.3	-5.4	-169.3	-10.4	3.2	3.4	-4.7	i
COc1ccc2nc(N3CCCCC3)c(/C=C3\SC(=S)NC3=O)cc2c1	-14.0	0.9	-3.0	121.0*	-18.2	-20.7	11.7	i
CCOc1ccc(CN2CCN(Cc3c[nH]c4ccccc34)CC2)cc1	-11.6	16.2	-6.0	5.6	0.5	-3.7	15.9	i
CC(=O)/C(C#N)=C1\NC(=O)C(Cc2ccc(C)c(Cl)c2)S1 (centres undefined)	-7.2	1.8	-65.0	45.4	-46.1	1.7	5.6	i
CC1(C)C(=O)C2(CCCCC2)C(=O)OC1c1ccc(O)cc1 (centres undefined)	-0.2	10.3	/	-3.1	/	/	3.0	i
O=C(Nc1nnc(COc2ccc(F)cc2)s1)c1ccco1	-17.9	-7.5	3.8	24.6	4.3	0.0	-6.0	i
CCOC(=O)c1sc(Nc2ccc(C)cc2C)nc1C	-12.7	-7.2	-57.8	18.6	-7.1	-6.9	-6.0	i
Cc1ccc(CNC(=O)c2ccc(Cl)cc2[N+](=O)[O-])cc1	-24.7	1.0	6.9	2.5	-1.6	-0.2	-0.1	i
COc1ccc(-c2noc(Cc3ccc(Cl)cc3)n2)cc1OC	0.4	-11.1	0.0	25.9	0.4	-3.4	-22.1	i
CC(=O)Nc1c(Cl)c2c(c(Cl)c1Br)-c1ccc(Cl)cc1C2	-2.3	/	-71.6	/	0.3	0.8	/	/
COC(=O)c1sc(=S)n(-c2cc(F)ccc2F)c1N	-19.6	-9.8	/	9.8	7.9	-0.1	-10.7	i
Cc1cccn2cc(CSc3nnc(Nc4ccc(C(C)C)cc4)s3)nc12	/	-6.3	5.2	0.9	-3.1	-0.9	-7.5	i
Cc1cccc(NC(=O)C2(c3ccccc3)CC2(Cl)Cl)c1 (centres undefined)	-4.1	-3.4	?	41.2	-6.4	-2.9	-5.5	i
C/C(=N/NC(=O)c1sc(NS(=O)(=O)c2ccccc2)nc1C)c1ccccc1	/	1.0	13.9	0.9	-2.5	0.4	1.2	i

An excerpt from above in order of length of the SMILES, high to low.
SMILES	UUG fidelity	eIF4H inh	Env fusion inh	CSC inhib	MT1-MMP act inh	MT1-MMP act inh RFP	PABP polyA inh	Rce1 inh	others
CC1(C)C(=O)C2(CCCCC2)C(=O)OC1c1ccc(O)cc1 (centres undefined)	-0.2	10.3	/	-3.1	/	/	3.0	i
COc1ccc(-c2noc(Cc3ccc(Cl)cc3)n2)cc1OC	0.4	-11.1	0.0	25.9	0.4	-3.4	-22.1	i
O=C(Nc1nnc(COc2ccc(F)cc2)s1)c1ccco1	-17.9	-7.5	3.8	24.6	4.3	0.0	-6.0	i

(cont.)
SMILES	UUG fidelity	eIF4H inh	Env fusion inh	CSC inhib	MT1-MMP act inh	MT1-MMP act inh RFP	PABP polyA inh	Rce1 inh	others
CC(NC(=O)OC(C)(C)C)C(=O)Oc1ccc2ccc(=O)oc2c1 (centres undefined)	-20.4	4.4	/	-6.8	-2.4	-1.7	-1.7	/
FC(F)(F)c1ccc(Sc2n[nH]c(C(F)(F)F)n2)nc1	-10.5	-4.7	3.7	2.9	1.8	-9.2	-0.4	i
CC(C)CC1(C)NC(=O)N(CC(=O)Nc2ccc3c(c2)CCC3)C1=O (centres undefined)	/	-6.4	15.1	-8.0	-1.0	-0.7	-2.4	i
CCCOc1ccc(C(CC(=O)O)NC(=O)c2sc3ccccc3c2Cl)cc1 (centres undefined)	/	-11.6	-15.1	-17.4	-2.5	0.0	-4.5	i
Nc1ccc2c(c1)OC1(CCCCC1)O2	/	0.0	10.8	/	2.9	2.1	-13.1	i
CN1CCN(C(=O)/C=C/c2cccc(Cl)c2)CC1	-7.8	-7.2	9.1	-2.5	-0.3	2.5	-3.7	i
COCCn1c(SCC(=O)N2CC(=O)Nc3ccccc32)nc2ccccc21	/	3.8	-2.6	-11.0	-1.2	5.8	0.5	i
COc1ccccc1-n1cc(-c2ccc([N+](=O)[O-])cc2)[nH]c1=S	-16.8	-1.2	-8.4	-5.9	-1.2	-6.0	-4.1	i
Nc1nc(-c2ccc3c(c2)CCO3)cs1	/	0.1	-15.0	-6.4	5.5	8.6	90.9*	i	eIF4H inh retest=40.3;PABP polyA inh retest=61.0*
Cc1nc(N)nc(N/N=C/c2ccccc2)n1	-31.7	-1.2	-0.5	-12.2	0.4	0.7	-12.1	i
Cc1cccc(-n2c(SCC(=O)N3CCCC3)nnc2-c2ccccn2)c1C	-5.8	4.6	/	-15.5	-4.9	0.1	6.5	i
COC(=O)c1ccc(Cn2c(CN3CCOCC3)nc3ccccc3c2=O)o1	-4.6	-5.1	18.1	12.2	-1.7	3.4	-7.6	i
COc1ccc(C(=O)NC(=S)N2CCCCC2c2cccnc2)cc1OC (centres undefined)	-28.4	2.0	/	-7.8	0.5	-0.8	10.4	i
CN(C(=O)COc1cccc(C#N)c1)C1CCS(=O)(=O)C1 (centres undefined)	-12.1	/	6.5	/	0.2	-0.8	/	/
CC(=O)Nc1ccc(S(=O)(=O)Nc2ccc3c(c2)CCC3)cc1	-2.0	2.5	21.3	-2.5	-1.9	-14.3	3.9	i
Cc1nccn1-c1c([N+](=O)[O-])c(=O)n(C)c2ccccc12	-21.3	5.8	-12.3	-6.8	-0.5	-1.5	12.2	i
CCOc1ccccc1NC(=O)c1cccc(NC(=O)C(C)C)c1	/	-4.8	16.5	-9.9	1.1	0.4	0.4	i
Nc1cc(C(F)(F)F)ccc1NCCc1ccccn1	-13.3	6.5	8.2	-0.4	1.5	4.6	7.6	i
COCCN(C(=O)c1ccccc1F)c1c(N)n(Cc2ccccc2)c(=O)[nH]c1=O	/	-6.8	14.9	-7.2	-0.5	-0.5	-17.0	i
CC1(C)Cc2c(sc3ncn(N)c(=N)c23)CO1	-23.6	-2.4	/	3.7	3.3	3.7	-10.8	i
Cc1ccc2cc(C(c3nnnn3CC3CCCO3)N3CCCC4(CCCCC4)C3)c(=O)[nH]c2c1 (centres undefined)	-15.1	/	-2.8	/	-12.9	-6.1	/	/
COc1ccc(OCc2cc(C(=O)NCC(C)(C)N3CCOCC3)no2)c(Cl)c1	-0.1	-6.6	4.8	4.2	0.0	-2.1	4.8	i
Cn1c(N)c(C(=O)CSc2nnc(C3CC3)n2-c2ccccc2)c(=O)[nH]c1=O	-8.5	/	15.8	3.3	-2.3	2.6	/	/
CCOC(=O)c1sc(NC(=O)CSc2nc(C)cc(C(F)(F)F)n2)c(C#N)c1C	/	-4.3	-55.7	-0.8	-3.4	-2.9	2.5	i
